Bioassay records deposited in PubChem by several laboratories.
Mtb growth: M. tuberculosis H37Rv growth inhibitors, H37Rv strain (AID 1626) | hit rate 0.95% among 220,000 | inhibition, % at 10 µM, or IC50 in µM where a hit was titrated | M. tuberculosis H37Rv growth inhibition; higher % means a stronger effect;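 active means confirmed in a dose series; inconclusive means inhibition above 80% but not taken into the dose series; inactive means below 80% or under 30% at every dose of the series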;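 further: bacteria incubated seven days before Alamar blue readout; 0% = bacteria only wells and 100% = bacteria with antibiotic wells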
Mtb betalactam: beta-lactam sensitization of Mtb H37Rv. M. tuberculosis H37Rv growth with meropenem, percent inhibition; hits of this screen are not shown here. inhibition, % at 25 µM. hit rate 0.27% among 330,000. AID 434955;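 active means about 74% or more and at least 40 points above the plate without the antibiotic, then above 30% in a dose series; inconclusive means first-round hits that could not be retested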;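 further: growth measured after seven days incubation then overnight dye step; 0% = bacteria only wells and 100% = bacteria with antibiotic; twin plates without the antibiotic show which effects depend on it; some results filed as inactive read as strong as hits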
Arbovirus anti: blocks arbovirus infection | arbovirus infection cell-based antiviral screen | inhibition, % at 10 µM | hit rate 0.37% among 200,000 | AID 1251;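 active means inhibition from about 30%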;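 further: bluetongue infection of BSR cells; cell survival read as ATP light after 72 h; 0% = infected wells without compound and 100% = uninfected wells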
YopH inh: blocks Yersinia enterocolitica YopH tyrosine phosphatase. fluorescence Ex485/Em525. inhibition, %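 (about 10 µM by stock and volumes)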. hit rate 0.16% among 140,000;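 active means inhibition of 50% or more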;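 further: controls were vehicle for no effect and minimum signal wells for full effect; inactives centre near -20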
RecA splice inh: blocks M. tuberculosis RecA intein splicing. P9WHJ3. cell-free RecA intein splicing, fluorescence. inhibition, %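 (about 9 µM by stock and volumes)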. hit rate 0.75% among 290,000. AID 2221; in the data active means inhibition above about 30%; inconclusive means no clear call, values can overlap the other calls;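 further: 0% = vehicle wells and 100% = reference inhibitor control wells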
Target sequence (P9WHJ3 whole entry, looked up, canonical isoform): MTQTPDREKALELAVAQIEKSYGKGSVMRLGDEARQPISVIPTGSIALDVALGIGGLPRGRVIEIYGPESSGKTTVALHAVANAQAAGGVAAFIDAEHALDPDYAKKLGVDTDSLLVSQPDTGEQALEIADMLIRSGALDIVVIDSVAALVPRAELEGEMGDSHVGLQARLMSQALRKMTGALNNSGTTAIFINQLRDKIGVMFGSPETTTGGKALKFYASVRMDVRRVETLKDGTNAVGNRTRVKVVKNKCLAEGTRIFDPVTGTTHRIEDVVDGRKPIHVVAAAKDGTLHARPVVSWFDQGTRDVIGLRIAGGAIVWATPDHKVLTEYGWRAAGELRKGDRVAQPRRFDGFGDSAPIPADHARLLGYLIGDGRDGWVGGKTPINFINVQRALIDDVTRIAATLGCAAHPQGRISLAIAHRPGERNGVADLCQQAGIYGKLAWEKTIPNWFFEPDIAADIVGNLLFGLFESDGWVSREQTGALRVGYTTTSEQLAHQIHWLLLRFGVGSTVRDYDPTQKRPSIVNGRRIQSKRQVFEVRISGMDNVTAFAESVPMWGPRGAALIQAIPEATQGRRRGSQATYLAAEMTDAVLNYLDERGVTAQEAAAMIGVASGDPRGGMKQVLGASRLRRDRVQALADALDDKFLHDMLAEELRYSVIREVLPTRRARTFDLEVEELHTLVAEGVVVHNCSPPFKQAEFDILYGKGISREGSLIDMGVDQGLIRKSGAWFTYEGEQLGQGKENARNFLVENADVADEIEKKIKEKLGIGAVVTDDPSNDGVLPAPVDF
Arbovirus anti repeat: recorded beside Arbovirus anti, whose call it bears; inhibition, %; measured here: 10K subset replicate screen; many hits read low in the repeat;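 first of two repeat runs on a subset; 0% = infected and 100% = uninfected wells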
An asterisk follows results filed as active; ? = inconclusive; / = no result given.

Start of the data: the first 2 entries as a preview:
SMILES	Mtb growth	Mtb betalactam	Arbovirus anti	YopH inh	RecA splice inh	others
CCN(CC(=O)Nc1ccc(OC)cc1)C(=O)COc1cccc2c1OC(C)(C)C2	/	-5	/	/	1.9
Cc1ccc(S(=O)(=O)CCC(=O)OCC(=O)N(C)C2CCS(=O)(=O)C2)cc1 (configuration not stated)	/	-9	/	/	-6.3

This part in full, from the start:
SMILES	Mtb growth	Mtb betalactam	Arbovirus anti	YopH inh	RecA splice inh	others
CCN(CC(=O)Nc1ccc(OC)cc1)C(=O)COc1cccc2c1OC(C)(C)C2	/	-5	/	/	1.9
Cc1ccc(S(=O)(=O)CCC(=O)OCC(=O)N(C)C2CCS(=O)(=O)C2)cc1 (configuration not stated)	/	-9	/	/	-6.3
CCN(C(=O)CSc1ncccc1C(=O)OC(C)C)c1cccc(C)c1	3%	0	-23	-3	4.4
CC(=O)N1CCCc2cc(S(=O)(=O)N3CCCC(C(=O)N4CCN(c5cc(C)ccc5C)CC4)C3)ccc21 (configuration not stated)	/	61	/	/	9.7
CN1COc2ccc3ccccc3c2C1	68%	-5	14	/	-8.1
CCOC(=O)c1cc(-c2ccccc2)n(CC(=O)Nc2cc(OC)cc(OC)c2)c1C	0%	2	-2	17	0.1
Cc1cc(C(=O)Nc2ccccc2C)on1	/	4	/	/	-0.1
CN(C)CCCN(C(=O)CCc1ccccc1)c1nc2ccc(Cl)cc2s1	77%	99	-35	-21	-0.8
CN1CCN(C(=O)C2=C[C@@H](C3CC3)C[C@@H](OCc3ccc(CO)cc3)O2)CC1	-8%	-6	1	/	0.7
C=CCn1c(N)cc(=O)nc1SCC(=O)Nc1cccc2ccccc12	6%	1	8	-6	1.4
O=C(CSc1ccccc1)Nc1ccc(N2CCOCC2)cc1	-2%	98	9	-20	2.3
C(=C\c1ccccc1)/CSc1nnc(-c2cccnc2)n1Cc1ccco1	-5%	?	6	-44	0.4
CCN(CC)C(=O)Cn1cc(S(=O)(=O)CC(=O)Nc2ccc(OC)c(OC)c2)c2ccccc21	/	2	/	/	-1.2
COc1ccc(CC(=O)N2CCOCC2)cc1OC	-13%	-3	0	-13	0.5
O=C(Nc1ccc(F)cc1)c1ccc2[nH]c(=O)c(=O)[nH]c2c1	/	-4	/	/	1.5
O=C(Nc1ccc(NC(=O)c2ccncc2)cc1)c1ccncc1	-7%	-5	/	/	0.0
CCNCCNC(=O)c1c(O)c2ccccc2n(CC)c1=O	3%	-3	-5	-40	0.0
CCN=c1scc(-c2ccc(F)cc2)n1/N=C/c1ccccn1	8%	18	8	/	-5.2
C=CCn1c(O)c(C(CC)=Nc2cccc(C(F)(F)F)c2)c(=O)[nH]c1=O	-6%	0	/	/	1.2
COc1ccc(CCN2C(=NC(=O)CC(C)C)SC3CS(=O)(=O)CC32)cc1 (configuration not stated)	-4%	-6	-8	8	-0.3

Overlap with the part before: seven compounds, then new ones.
SMILES	Mtb growth	Mtb betalactam	Arbovirus anti	YopH inh	RecA splice inh	others
COc1ccc(CC(=O)N2CCOCC2)cc1OC	-13%	-3	0	-13	0.5
O=C(Nc1ccc(F)cc1)c1ccc2[nH]c(=O)c(=O)[nH]c2c1	/	-4	/	/	1.5
O=C(Nc1ccc(NC(=O)c2ccncc2)cc1)c1ccncc1	-7%	-5	/	/	0.0
CCNCCNC(=O)c1c(O)c2ccccc2n(CC)c1=O	3%	-3	-5	-40	0.0
CCN=c1scc(-c2ccc(F)cc2)n1/N=C/c1ccccn1	8%	18	8	/	-5.2
C=CCn1c(O)c(C(CC)=Nc2cccc(C(F)(F)F)c2)c(=O)[nH]c1=O	-6%	0	/	/	1.2
COc1ccc(CCN2C(=NC(=O)CC(C)C)SC3CS(=O)(=O)CC32)cc1 (configuration not stated)	-4%	-6	-8	8	-0.3
O=S(=O)(c1ccc(OCC(O)CN2CCN(c3ccccc3O)CC2)cc1)N1CCOCC1 (configuration not stated)	-4%	4	3	-39	-2.7
CN(CCNC(=O)C1CCN(c2ncnc3c2nc2n3CCCCC2)CC1)Cc1ccccc1	/	5	/	/	-1.8
CCCCC(O)(CCCC)C(=O)NNc1ccccc1	?	85	-28	-9	-3.1
O=C1Nc2ccccc2/C1=C/c1cccnc1	0%	55	14	/	-0.1
O=C(COC(=O)/C=C/c1ccccc1Cl)NCCc1ccc(Cl)cc1Cl	6%	3	-8	-14	-2.7
CCOC(=O)C1CCN(c2c(NCCN3CCN(c4ccccc4)CC3)c(=O)c2=O)CC1	-3%	7	0	-25	-1.0
CCC(=O)Nc1cccc(NC(=O)CSc2nnc(-c3ccc(NS(C)(=O)=O)cc3)n2C)c1	/	7	10	-22	-0.1
CCOC(=O)C(=NC(C)CC)NNc1cccc(C(F)(F)F)c1 (configuration not stated)	?	95	-21	-17	-15
CC(=O)c1ccc(N2CCN(S(=O)(=O)c3ccc4c(c3)CC(=O)N4C)CC2)cc1	/	-3	/	/	-2.3
CCOc1ccc(C(=O)Nc2ccc(Cl)cn2)cc1Cl	25%	5	7	-49	/
OC(c1cccs1)(c1cccs1)C1C[N+]2(CF)CCC1CC2 (configuration not stated)	-6%	3	-7	-36	-5.1
CC1(C)CC(=O)C(Br)=C(O)C1	1%	/	-2	/	/
CCCCNC(=O)c1ccc2c(c1)N(CC)C(=O)c1ccccc1S2(=O)=O	-2%	-5	-2	-18	-0.3	Arbovirus anti repeat=2
COC(=O)[C@@H]1C[C@@]2(O)[C@H](O)[C@H](O)[C@H](O)C[C@H]2N1CC(c1ccccc1)c1ccccc1	-4%	-10	/	/	-2.5
CC(=O)NC1C(OCc2ccccc2)OC(COC(C)=O)C(OC(C)=O)C1OC(C)=O (configuration not stated)	2%	0	6	-24	0.0
Cc1ccc(C)c(-n2c(CNC(=O)c3ccco3)nnc2SCC(=O)Nc2nnc(C)s2)c1	1%	-3	6	-53	1.2
CCOC(=O)Nc1ccc2c(COC(=O)CN(C)S(=O)(=O)c3ccc(C)cc3)cc(=O)oc2c1	/	1	/	/	0.9
Cc1ccccc1Sc1ncnc2onc(C)c12	-3%	54	-4	-7	5.9
CCCCN(C(=O)c1ccccc1F)c1c(N)n(CCC)c(=O)[nH]c1=O	/	-6	/	/	-0.5
Cc1ccc(NC(=O)C2CCCN(S(=O)(=O)c3cnc[nH]3)C2)c(Br)c1 (configuration not stated)	-22%	0	2	-38	/
COC(=O)CSc1n[nH]c(=S)s1	-2%	3	0	-10	1.0
C=CCn1c(C(CCC(C)C)CC(C)(C)O)n[nH]c1=S (configuration not stated)	0%	-9	4	-29	-1.0
CCN(CC)C(=O)CN1C(=O)c2cccc3cccc(c23)C1=O	6%	-1	5	/	1.2
CCC(C)NC(=O)Cn1c(-c2ccccc2)cc(C(C)=O)c1C (configuration not stated)	3%	3	3	/	-1.3
CNC(=O)c1c(C)noc1C	/	-1	1	/	1.6
COC(=O)c1ccc(C[n+]2ccccc2)cc1	/	-2	/	/	-1.5
CC(NCc1nc2ccccc2n1C)C12CC3CC(CC(C3)C1)C2 (configuration not stated)	0%	23	-8	/	1.9
CC(=O)N1CN2CN(C1)CN(C(C)=O)C2	-4%	-4	3	-22	0.0
O=C(OCC(=O)c1c[nH]c2ccccc12)c1ccco1	-3%	-8	-2	-14	-3.3
Cc1cccc(Oc2coc3cc(OC(=O)c4cncc(Br)c4)ccc3c2=O)c1	5%	73	-7	-23	10
CCOC(=O)C1CCCN(CCC(=O)Nc2ccccc2C)C1 (configuration not stated)	0%	-2	1	/	1.1
CCNCCNc1ccc([N+](=O)[O-])c2cccnc12	-9%	54	/	/	2.8
CN(C1CCCCC1)C(CNS(=O)(=O)c1ccc(Cl)cc1)c1ccccc1 (configuration not stated)	/	-3	/	/	3.6
CC(C)Oc1ccc(C(=O)O)c(C(=O)O)c1	-7%	8	3	5	-0.6
Cc1cccc(-c2c3c(=O)n(C)c(=O)n(C)c3cn2-c2ccc(O)cc2)c1	-2%	14	/	-21	4.7
COc1ccc(/C=c2\s/c(=C/C(=O)c3ccc(C)cc3)[nH]c2=O)cc1OC	33µM*	72	-17	-13	-11
c1ccc(Cn2c(CNc3nc4ccccc4n3CCN3CCCCC3)nc3ccccc32)cc1	17%	85	-36	-19	6.5
CS(=O)(=O)Cc1cccc(C(=O)NN(c2ccccc2)c2ccccc2)c1	/	-5	/	/	4.0
Cc1c(O)ccc(-c2[nH]ncc2-c2nc3ccccc3s2)c1O	1%	1	13	-15	1.5
O=C(COc1ncnc2ccc(Br)cc12)NCc1ccco1	0%	3	/	/	0.8
CNC(=O)NC(=O)C(C)N1CCN(C/C=C/c2ccccc2)CC1 (configuration not stated)	-3%	-6	2	/	/
Cc1sc2ncnc(N3CCC(C(=O)N(C)CC(=O)Nc4ccc(Cl)c(C(F)(F)F)c4)CC3)c2c1C	/	7	/	/	-0.4
O=C1OC(Nc2nc(-c3ccc(F)cc3)cs2)c2ccccc21 (configuration not stated)	/	6	/	/	-1.7
C[C@H](NC(=O)c1nc[nH]c1C(=O)N[C@@H](Cc1ccccc1)C(=O)OCc1ccccc1)c1ccccc1	-8%	-18	6	/	2.2
Cc1cc(S(=O)(=O)N2CCN=C2c2ccccc2)c(C)cc1Cl	6%	8	-3	-40	2.5
CCOc1ccc(NC(=O)CSc2nncn2C)cc1	/	3	/	/	-1.8
Cc1ccc(S(=O)(=O)N(C)C)cc1NC(=O)C(C)[N+]12CCN(CC1)CC2 (configuration not stated)	3%	-2	11	/	5.8
O=C(NCc1ccccc1Cl)c1ccc2nnsc2c1	8%	-4	/	/	-2.8
O=C(N1CCN(c2cccc(Cl)c2)CC1)C1(c2cccs2)CCOCC1	5%	3	3	-30	10
CC1CCCCC1NCC(=O)Nc1ccccc1-c1ccccc1 (configuration not stated)	8%	-8	-7	3	/

(continued)
SMILES	Mtb growth	Mtb betalactam	Arbovirus anti	YopH inh	RecA splice inh	others
NNC(=O)CCc1nc2ccc(O)cc2[nH]1	-7%	-2	0	/	-6.4
COc1ccc2oc(=O)c(C(C)=O)cc2c1	2%	7	-4	-15	-3.1
Cc1nnc2n(Cc3ccccc3)c(=O)c3c4c(sc3n12)COC(C(C)C)C4 (configuration not stated)	15%	-2	-7	-21	0.9
CC1(C)Cc2c(C#N)c(SCc3nc4ccccc4[nH]3)nc(N3CCOCC3)c2CO1	-2%	2	-21	-31	-58
COc1cccc(N2C(=O)CC(N3CCC(C(N)=O)(N4CCCCC4)CC3)C2=O)c1 (configuration not stated)	-3%	?	3	-31	-3.5
Cc1nc2ccc(NC(=O)c3ccc(Br)o3)cc2s1	64µM*	80	-5	/	0.2
CCc1nc2n(n1)C(O)c1cc([N+](=O)[O-])ccc1S2 (configuration not stated)	6%	-2	/	/	/
CCN(CC(=O)N1CCN(c2ccccc2)CC1)S(=O)(=O)c1ccc(C)cc1	10%	0	2	-29	1.0
Cc1nn(C)c(C)c1/C=N/N=C1\CCC2C3CCc4cc(O)ccc4C3CCC12C (configuration not stated)	/	-6	-30	5	3.9
c1cn(CCCNC2CCCCCCC2)cn1	/	97	/	/	-1.6
Cc1cc(C)cc(NC(=O)C2CCCN2S(=O)(=O)c2cccc3cccnc23)c1 (configuration not stated)	/	-8	/	/	-2.8
NC(=S)NNC(=O)c1ccccc1Cl	-9%	-1	/	/	-0.2
Cc1cccc(C)c1N(CC(=O)NCc1ccc(F)cc1)C(=O)c1csnn1	-8%	-2	4	/	-0.5
O=S(=O)(c1ccc(Br)cc1)N1CCN=C1SCc1cccnc1	1%	-5	-4	/	-1.0
COc1ccccc1C(N)=S	-1%	-2	11	-15	0.6
CCOc1ccc(N2C(=O)/C(=C/c3ccc(C)o3)C(=O)NC2=S)cc1	/	90	/	/	-2.1
CCOC(=O)C(NC(=O)NCc1cccc(C(F)(F)F)c1)(OCC)C(F)(F)F (configuration not stated)	-1%	-1	-1	-18	1.3
O=C(NCC(=O)N(CC1CCCO1)C1(C(=O)NC2CCCCC2)CCCCC1)c1ccccc1 (configuration not stated)	5%	-1	-4	14	7.0
Cc1cccc(NC(=O)C23CCC(C)(/C(=N/O)C2)C3(C)C)c1 (configuration not stated)	-1%	0	-5	-15	-4.7
Cn1c(=O)oc2cc(S(=O)(=O)NC3CCCCCCC3)ccc21	-3%	13	13	-46	2.5
CN(C)C(=O)Oc1ccc(OCc2cccc[n+]2C)cc1	-2%	-11	4	-20	-0.4
CCN1CCN(CCC2Oc3cc([N+](=O)[O-])ccc3NC2=O)CC1 (configuration not stated)	6%	-1	-4	/	0.4

Not all compounds are listed. The share of hits here may be higher or lower than overall.
